# Assay outcomes deposited in PubChem BioAssay by National Center for Advancing Translational Sciences (NCATS).
# VDR inhibitor: Inhibitors of the vitamin D receptor (VDR): qHTS | VDR-SRC2-3 peptide fluorescence polarization, 2 h | Vitamin D3 receptor (Homo sapiens), P11473 | Potency, µM, for inactives: max response, negative = inhibition, actives largely listed as inhibitors | AID 504847, 2011 | 0.93% of 400,000 active; active = well fitted inhibition curve with a large enough effect; inconclusive = small, poorly fitted or top-dose-only effect, or another doubt; inactive = no such curve, though single readings can be large or run the other way; also: series mostly up to about 120 µM
# Target sequence (P11473 whole entry, looked up): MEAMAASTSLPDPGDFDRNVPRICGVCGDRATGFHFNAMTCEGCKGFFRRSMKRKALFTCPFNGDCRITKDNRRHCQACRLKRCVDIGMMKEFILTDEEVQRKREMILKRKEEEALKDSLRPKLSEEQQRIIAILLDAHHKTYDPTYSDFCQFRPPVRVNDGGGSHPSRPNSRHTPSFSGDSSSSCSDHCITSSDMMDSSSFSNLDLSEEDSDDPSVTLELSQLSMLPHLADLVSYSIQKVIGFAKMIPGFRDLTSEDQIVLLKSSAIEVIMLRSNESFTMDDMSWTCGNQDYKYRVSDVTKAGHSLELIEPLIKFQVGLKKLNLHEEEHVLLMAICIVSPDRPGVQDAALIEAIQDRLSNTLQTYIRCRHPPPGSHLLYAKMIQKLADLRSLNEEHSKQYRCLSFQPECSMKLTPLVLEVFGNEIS
#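 Fluorescence polarization assay measuring small-molecule disruption of VDR binding to the coregulator peptide SRC2-3. Compounds were pin-transferred (23 nl) into the reagent mix and incubated 2 h at room temperature before reading.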
# Starred values were filed as active, the others as inactive; ? = inconclusive; & = joins results of further samples; [ ] = remark or other dose. % is scaled to controls: 0 for no effect and ±100 for the full control effect; potency is read from the fitted curve at half-maximal effect. Not all compounds are listed; rates above refer to the full screens.
SMILES,VDR inhibitor
CCOC(=O)N1CCC2(O)CCCCC2C1c1ccc(F)cc1 (centres undefined),2%
O=C(COC(=O)C1C2CC3OC(=O)C1C3C2)Nc1cccc(C(F)(F)F)c1 (centres undefined),9%
COCCCNC(=S)N1CCN(C)CC1,22%
CN1CCN(S(=O)(=O)c2ccccc2)CC1,-1%&15%
COc1ccc(S(=O)(=O)n2[nH]c(=O)c(CCO)c2C)c([N+](=O)[O-])c1,-14%
Cc1nc(C(=O)N2CCc3c([nH]c4ccccc34)C2c2ccccn2)cs1 (centres undefined),0%
Cc1ccc(C(=O)Nc2c3c(nn2-c2ccccc2)CS(=O)(=O)C3)cc1C,-16%
CC[C@@]1(C(=O)OC)N[C@H](CN(C)C(=O)c2ccccc2)[C@@H]2C(=O)N(C)C(=O)[C@@H]21,-12%
CNc1nnc(-c2cc3ccccc3oc2=O)s1,0%
Cc1ccc(NC(=O)OCc2cc(-c3ccccc3)on2)cc1,12%
O=C(Cc1ccc(Cl)cc1)Nc1ccc2oc(=O)ccc2c1,18%
COc1ccc(-c2nnc(CSc3nc4ccccc4c(=O)n3CC(C)C)o2)cc1OC,-4%
CN1C[C@@H]2[C@@H]3C(=O)N(Cc4ccccc4)C(=O)[C@@H]3[C@](C)(C1=O)N2C(=O)c1ccc(Cl)cc1,7%
O=C1CC(c2ccccc2)CC(O)=C1C=NCCN1CCOCC1 (centres undefined),8%
COc1ccc(C(=O)n2cc(C(C)=O)c3ccccc32)cc1,-22%
Cc1ccc(NC(=O)C(OC(=O)c2ccc(O)cc2)c2ccccc2)cc1Cl (centres undefined),-18%
COc1cc(OC)c(N(C)S(=O)(=O)c2cccc(C(=O)OCC(=O)NCc3ccco3)c2)cc1Cl,-6%
CC(=O)Nc1ccc(N2C(=O)CSC2c2ccccc2)cc1 (centres undefined),-7%
Cc1cccc(OCc2nc(CC(=O)Nc3ccc(C)cc3C)cs2)c1,7%
O=C(COC(=O)c1ccc2ccccc2n1)c1ccccc1,-15%
COc1ccccc1-c1cncnc1NCc1ccccc1,?
CC(=O)c1ccc(N2CCN(CC(O)COC(c3ccccc3)c3ccccc3C)CC2)cc1 (centres undefined),?
Cc1ccc(C)c(OCCN2CCOCC2)c1,31%[activator]
Cc1ccc2cccc(NC(=O)C(F)(F)F)c2n1,4%
CC(C)c1ccccc1NC(=O)c1cnccn1,9%

# Two entries picked at random from those above:
SMILES,VDR inhibitor
CC(=O)Nc1ccc(N2C(=O)CSC2c2ccccc2)cc1 (centres undefined),-7%
Cc1cccc(OCc2nc(CC(=O)Nc3ccc(C)cc3C)cs2)c1,7%

# (listing goes on)
SMILES,VDR inhibitor
COc1cc(OC)c(NS(=O)(=O)c2cn(C)cn2)cc1Cl,-21%
COc1ccc(CNCC(O)(c2ccc(F)cc2)c2ccc(F)cc2)cc1,-6%
Cc1c(C)n(CCC#N)c2ccccc12,9%
COc1ccc(C(=O)N(Cc2ccco2)Cc2cccs2)c(OC)c1,?
Cc1ccc2c(c1)Oc1ccccc1C=C2C(=O)O,0%
CCN(CC(=O)Nc1ccccc1C(F)(F)F)C(=O)C1CC(=O)N(Cc2ccccc2)C1 (centres undefined),-4%
CC1CCCN(C(=O)CNC(=O)c2cccs2)C1 (centres undefined),-13%
CC(C)C(=O)Nc1ccc(C(=O)CSc2nnc(C3CC3)n2C2CC2)cc1,-29%
Cc1ccc(CNC(=O)COC(=O)c2cc3c(s2)CCC(C)C3)cc1 (centres undefined),-8%
O=C1Nc2ccccc2Oc2cc(Oc3ccc(Cl)cc3)ccc21,7%
CC(C)(C)c1ccc(C(=O)NCC(=O)NCc2ccccn2)cc1,15%
Cc1ccc(-c2nc(SCC(=O)N(C)C3CCS(=O)(=O)C3)[nH]c2-c2ccc(C)cc2)cc1 (centres undefined),-16%
CC(Sc1nnnn1C1CC1)C(=O)N1CC(=O)Nc2ccccc21 (centres undefined),-20%
O=C(CCN1CCN(C(=O)c2ccccc2)CC1)c1ccc(Br)cc1,?
CCN1C(=O)c2ccc(C(=O)Nc3ccc4c(c3)OCO4)cc2C1=O,-2%
COC(=O)CN1C(=O)[C@H]2[C@@H](/C=C/c3ccccc3)N3C(=O)CN(Cc4ccccn4)C(=O)[C@@]3(Cc3ccccc3)[C@H]2C1=O,-7%
Cc1c(C(=O)O)cnc2c([N+](=O)[O-])cnn12,35µM*
Cc1cc(C)cc(N=c2c([N+](=O)[O-])nn(-c3ccc(Cl)cc3)n2O)c1,-3%
O=C(CCN1CCN(c2ccc(F)cc2)CC1)Nc1ccccc1F,-6%
O=C(/C=C/c1ccccc1)c1ccc(O[C@H]2OC(CO)C(O)C(O)C2O)cc1O (some centres undefined),16µM*
COC(=O)[C@H]1CCCN1C(=O)Nc1cccc(Oc2c(F)c(F)c(F)c(F)c2F)c1,-2%
COc1cc(C(=O)NNC(=O)CCOc2ccccc2C)cc(OC)c1OC,-15%
Cc1ccc(Cl)cc1NC(=O)N1CCN(C)c2ncccc21,-7%
Cc1ccc(NC(=O)Cn2c(=O)n(CCCCCC(=O)NCc3ccc(F)cc3)c(=O)c3sccc32)c(C)c1,47%[activator]
O=C1CC(N2CCN(c3ccc(F)cc3)CC2)C(=O)N1Cc1ccc(N2CCCC2=O)cc1 (centres undefined),4%

# Compounds above with a CF3 group (3):
SMILES,VDR inhibitor
O=C(COC(=O)C1C2CC3OC(=O)C1C3C2)Nc1cccc(C(F)(F)F)c1 (centres undefined),9%
Cc1ccc2cccc(NC(=O)C(F)(F)F)c2n1,4%
CCN(CC(=O)Nc1ccccc1C(F)(F)F)C(=O)C1CC(=O)N(Cc2ccccc2)C1 (centres undefined),-4%

# Continued.
SMILES,VDR inhibitor
C=CCc1ccccc1OCC(O)CNC(=O)c1ccccc1C(=O)O (centres undefined),-11%
Nc1c(C(=O)OCC2CCCO2)c2nc3ccccc3nc2n1-c1ccc2c(c1)OCCO2 (centres undefined),-12%
Cc1ccsc1C(=O)N1CCN(S(=O)(=O)c2cccs2)CC1,0%
COc1ccc(-c2cn3c(n2)sc2cc(C(=O)N4CCCCC4)ccc23)cc1,6%
O=C(O)C1CCN(Cc2cccnc2)CC1,-10%
C/C(=N\Nc1ccccn1)c1cccs1,8%
C/C(CC(=O)Nc1ccccn1)=N\NC(=O)c1ccccc1O,2%
O=C(O)C(Cc1ccccc1)N=C(NS(=O)(=O)c1ccccc1)c1ccccc1 (centres undefined),-2%
CCOC(=O)N1CCN(C(=O)CS(=O)Cc2nc(-c3cccc(C)c3)oc2C)CC1 (centres undefined),-3%
O=C(CSc1nnc(-c2c[nH]c3ccccc23)n1CC1CCCO1)Nc1ccc2c(c1)OCCO2 (centres undefined),-1%
CC(=O)c1cccc(NC(=O)C2=CC(c3ccco3)=NS(=O)(=O)N2C)c1,11%&22%
Cc1cnc(C(=O)OCC(=O)N2CC(C)CC(C)C2)cn1 (centres undefined),-10%
Cc1nn(CC(=O)N2c3ccccc3NC(=O)C2(C)C)c(C)c1[N+](=O)[O-],-4%
COc1ccccc1NC(=S)N(CCN(C)C)C(C)c1ccncc1 (centres undefined),-9%
Cc1ccc(N2C(=S)SC3CS(=O)(=O)CC32)cc1 (centres undefined),11%
CCC(NC(=O)COC(=O)C1CC2CCCC(C1)C2=O)c1ccc(Br)cc1 (centres undefined),-24%
Cc1ccc(NC(=O)N2CCC(=O)N2)cc1,-5%
O=C(COC(=O)c1ccccc1C(F)(F)F)NC(=O)NCc1ccco1,2%
COc1cccc(CNCCOCCO)c1OC,-1%
Cc1ccc(NC(=O)Cn2cnc3c(oc4nc5c(cc43)COC(C)(C)C5)c2=O)cc1,1%
O=c1[nH]c2ccccc2n1CCCOc1ccccc1,-8%
Cc1cccc(C(=O)Oc2ccccc2/C=N/Nc2ccc([N+](=O)[O-])cc2)c1,9%
COc1ccccc1CC(=O)N1CCOCC1,-4%
CCOC(=O)C(NCc1ccco1)(NC(=O)c1ccc(OC)cc1)C(F)(F)F (centres undefined),-14%
Brc1ccc(C2=NC(Cc3ccccc3)CO2)cc1 (centres undefined),-7%

# Shown as tab-separated lines: part of the list above
canonical_smiles	VDR inhibitor
O=C(CCN1CCN(C(=O)c2ccccc2)CC1)c1ccc(Br)cc1	?
CCN1C(=O)c2ccc(C(=O)Nc3ccc4c(c3)OCO4)cc2C1=O	-2%
O=C1CC(c2ccccc2)CC(O)=C1C=NCCN1CCOCC1 (centres undefined)	8%

# The results go on.
SMILES,VDR inhibitor
O=C(CSc1nc2c([nH]c3ccccc32)c(=O)n1-c1ccc(F)cc1)NCc1ccc(F)cc1,-1%
CN1CCN(C(c2ccccn2)c2cc(Cl)c3cccnc3c2O)CC1 (centres undefined),50µM*
O=C(CSc1nc(-c2ccccc2)cs1)Nc1cccc([N+](=O)[O-])c1,-15%
CN1CCN(c2ncc3nc(-c4cccs4)c(=O)n(C[C@H]4CCCO4)c3n2)CC1,0%
COCCCNC(=O)/C(C#N)=C1\N=C(NC(=O)c2cccs2)c2ccccc21,5%
O=C(NCCC1=CCCCC1)c1ccc(-n2cncn2)c([N+](=O)[O-])c1,-1%
CCOC(=O)C1Nc2ccc(C(=O)O)cc2C2C=CCC12 (centres undefined),16µM*
CCN(CC)C(=O)C(=O)Nc1ccc(OCc2ccccc2)cc1,-1%
Cc1ccsc1/C=N/NC(=O)c1nnn(-c2nonc2N)c1C(C)C,-8%
c1ccc(-n2c(-c3ccncc3)nnc2N2CCOCC2)cc1,6%
OCCNCc1cccc2ccccc12,-2%
O=C(CSc1nnc(CCCN2C(=O)c3cccc4cccc(c34)C2=O)n1-c1ccccc1)NCCCO,-25%
CC(C)N1CCC(=NNC(=O)c2ccccc2[N+](=O)[O-])CC1,-12%
COc1ccc(Br)cc1CN(C)C(=O)c1ccncc1,-11%
CCOc1ccccc1NC(=O)C(=O)Nc1ccc2nc3n(c(=O)c2c1)CCCCC3,-3%
CCc1ccc(CC2(O)CC(C)N(C)CC2C)cc1 (centres undefined),2%
CCn1c2ccccc2c2cc(CN3CCN(Cc4cccc(Cl)c4)CC3)ccc21,2%
Cc1cc(Cl)cc2c(N=Nc3ccccc3C(=O)O)c(O)[nH]c12,10%
CC(=O)Nc1ccc(NC(=O)/C=C/c2ccccc2)cc1,16%
CCc1ccc(OC)c(S(=O)(=O)N2CCN(C(=O)c3ccco3)CC2)c1,-9%
CN(CC(=O)Nc1ccc(Cl)cc1)Cc1cc(=O)n2ccsc2n1,-2%
CCOc1ccccc1-c1noc(CCC(=O)Nc2cccnc2)n1,-2%
Cc1ccc(NC(=O)c2cc(C)nc3ccccc23)c(C)c1,6%
O=C1N[C@@H](c2ccccc2)COC(=O)[C@H](Cc2ccc(F)cc2)CC/C=C/C[C@@H]1CC(=O)N(CCO)Cc1ccccc1,-7%
CCN(CC)S(=O)(=O)c1cccc(NC(=S)NC(=O)/C=C/c2ccc(S(=O)(=O)N3CCOCC3)cc2)c1,-17%
# The list goes on.
SMILES,VDR inhibitor
CC(C)(C)C(=O)Nc1cc(S(=O)(=O)Nc2ccc(Cl)cc2)ccc1Cl,-12%
CCOC(=O)N1CCC(NC(=O)C(Cc2ccccc2)NC(=O)c2ccco2)CC1 (centres undefined),5%
CCCCC/C=C\C/C=C\C/C=C\C/C=C\CCCCCC(=O)NCCc1ccc(O)c(O)c1,3%
Cc1ccc(N2C(=O)CS/C2=N\C(=S)Nc2ccccc2)cc1,1%
COc1ccccc1CNC(=O)[C@H](C)NC(=O)C1CCN(C(=O)[C@@H]2CCCN2C(=O)OC(C)(C)C)CC1,-10%
Cc1cc(C)c(C#N)c(SCC(=O)Nc2ccc(S(=O)(=O)Nc3ncccn3)cc2)n1,11%
O=C1NC(=Nc2ccccc2Cl)S/C1=C\c1cccc([N+](=O)[O-])c1,?
O=S(=O)(NCC(c1cccnc1)N1CCOCC1)c1cccs1 (centres undefined),10%
O=C(NCc1ccco1)c1cc(-c2cccs2)nc2ccccc12,-20%
O=C(c1ccc2c(c1)N(Cc1ccc(Cl)cc1)C(=O)c1ccccc1S2(=O)=O)N1CCCCC1,-3%
CCC(=O)Nc1cc(C(C)(C)C)ccc1C(C)=O,10%
Cc1nc(=S)c2c([nH]1)-c1ccccc1CC21CCCCC1,-7%
O=C(O)CCn1c(-c2ccccc2)cc2c1CCCC2=O,-19%
CCc1ccc(CNC(=O)CSc2cc(=O)n(C)c3ccc(Cl)cc23)cc1,-22%
Cc1ccc(-c2nc(CS(=O)CC(=O)NCCN3CCCCC3C)c(C)o2)cc1 (centres undefined),-11%
CC1Cc2ccccc2N1CC(=O)Nc1ccc2c(c1)OCCCO2 (centres undefined),-1%
COc1cccc([C@@H]2Oc3ccc(OC)cc3C[C@H]2OC(=O)NS(=O)(=O)c2ccc(F)cc2)c1,-11%
COc1ccccc1C(=O)Nc1cccc(C(=O)OCc2cc(=O)n3cc(C)sc3n2)c1,-1%
CCn1c(C)nc2cc(C(=O)N/N=C/c3cccc(O)c3O)ccc21,12%
CCCCN(CC)C(=O)CSc1nc2n[nH]c(C)c2c(=N)n1-c1cccc(C)c1,7%&2%

# Three entries from above in another layout.
VDR inhibitor | SMILES
-1% | CC1Cc2ccccc2N1CC(=O)Nc1ccc2c(c1)OCCCO2 (centres undefined)
-11% | COc1cccc([C@@H]2Oc3ccc(OC)cc3C[C@H]2OC(=O)NS(=O)(=O)c2ccc(F)cc2)c1
-1% | COc1ccccc1C(=O)Nc1cccc(C(=O)OCc2cc(=O)n3cc(C)sc3n2)c1
